# Bioassay records: PubChem BioAssay, National Center for Advancing Translational Sciences (NCATS)
# TRPML1 agonist = qHTS for Agonists of the Human Mucolipin Transient Receptor Potential 1 (TRPML1) | activation, % (concentration not given with the values) | TRPML1-expressing cells, Ca2+ dye fluorescence, FDSS; host cell line not named in the record; reference of the full effect not given here | AID 624414, 2012 | Mucolipin-1 (Homo sapiens), Q9GZU1 | 410,000 tested, 0.12% active; in the data active = activation above about 50%; inconclusive = about 30% to 50%; inactive = below about 30%; note: 0% is about no effect; the text of the record puts the active cut at 80%
# Target sequence (Q9GZU1 whole entry, looked up): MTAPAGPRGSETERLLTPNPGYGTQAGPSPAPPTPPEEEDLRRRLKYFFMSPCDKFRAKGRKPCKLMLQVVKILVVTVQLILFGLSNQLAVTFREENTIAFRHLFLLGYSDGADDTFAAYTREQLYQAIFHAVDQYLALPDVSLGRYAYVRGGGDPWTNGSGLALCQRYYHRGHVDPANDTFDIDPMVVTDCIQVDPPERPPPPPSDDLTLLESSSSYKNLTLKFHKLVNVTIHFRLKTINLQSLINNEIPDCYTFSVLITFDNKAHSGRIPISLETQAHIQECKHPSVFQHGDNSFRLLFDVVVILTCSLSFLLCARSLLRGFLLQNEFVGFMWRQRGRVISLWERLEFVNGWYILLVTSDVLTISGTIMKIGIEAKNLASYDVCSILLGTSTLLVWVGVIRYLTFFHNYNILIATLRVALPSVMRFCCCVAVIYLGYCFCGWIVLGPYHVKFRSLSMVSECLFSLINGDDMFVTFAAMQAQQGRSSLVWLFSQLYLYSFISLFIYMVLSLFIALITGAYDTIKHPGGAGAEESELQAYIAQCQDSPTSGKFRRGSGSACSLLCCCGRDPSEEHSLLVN
#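 Calcium fluorescence on an FDSS kinetic reader gave the read-out. Tet-induced TRPML1-DL cells were plated overnight, dye-loaded (Ca8 with quencher, 45-90 min, room temperature, dark), then read 110 s after compound addition, and again 110 s after 4uM final 54-4 (EC80).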
# D2 ag = Beta-Arrestin HTS for Positive Allosteric Modulators of the Human D2 Dopamine Receptor: Agonists; DiscoveRx PathHunter D2 beta-arrestin, luminescence, 90 min; 100% = 57 uM dopamine signal; 360,000 tested, 0.084% active; activation, % (no concentration beside the values); in the data active = activation above about 40%; inconclusive = about 15% to 40%; inactive = below about 15%; note: compound concentration not given in the record; the text of the record calls up to 30% inactive
# Target sequence (P14416 whole entry, looked up): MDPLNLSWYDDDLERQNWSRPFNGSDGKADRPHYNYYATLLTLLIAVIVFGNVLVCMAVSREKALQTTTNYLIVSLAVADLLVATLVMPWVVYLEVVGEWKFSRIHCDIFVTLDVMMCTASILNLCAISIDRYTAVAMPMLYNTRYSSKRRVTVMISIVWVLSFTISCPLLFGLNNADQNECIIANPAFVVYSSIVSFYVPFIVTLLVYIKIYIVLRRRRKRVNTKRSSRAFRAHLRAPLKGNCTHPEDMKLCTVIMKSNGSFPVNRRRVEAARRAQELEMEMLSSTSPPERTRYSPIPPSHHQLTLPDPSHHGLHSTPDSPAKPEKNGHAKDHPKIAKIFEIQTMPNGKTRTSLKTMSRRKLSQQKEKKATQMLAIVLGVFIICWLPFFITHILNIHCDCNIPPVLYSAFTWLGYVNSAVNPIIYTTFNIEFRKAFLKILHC
#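 Agonist mode: compounds alone added to overnight-plated D2 PathHunter cells for 90 min at 37 C, with 57 uM final dopamine (EC100) defining full response. Beta-arrestin recruitment detected by chemiluminescent reagent, read after 1 h at ambient temperature.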
# CtBP-E1A inh = qHTS Assay for Inhibitors of the CtBP/E1A Interaction; activity change, % (no concentration beside the values); AID 651724, 2012; AlphaScreen GST-E1A/His-CtBP binding, 1536-well; active compounds read low; control for the full effect not named in the record; 340,000 tested, 0.49% active; CtBP / adenovirus E1A interaction (AlphaScreen); in the data active means activity change below about -65%; inconclusive means about -30% to -65%; inactive means above about -30%; note: % is set by controls: 0 for no effect and ±100 for the full control effect
#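 AlphaScreen with 125 nM GST-E1A and 125 nM His-CtBP (5X stocks) in Tris pH 8.0, 300 mM NaCl, BSA, Tween 20, TCEP. Compounds preincubated 2 h at 37 deg C, then glutathione donor/nickel acceptor beads added for 1 h at 37 deg C in dark.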
# TRPML1 inh = qHTS for Inhibitors of the Human Mucolipin Transient Receptor Potential 1 (TRPML1); activity change, negative = inhibition, % (concentration not given with the values); TRPML1-inducible cells, Ca2+ dye fluorescence, FDSS; active compounds read low; inhibition of EC80 agonist-evoked calcium signal; Mucolipin-1 (Homo sapiens), Q9GZU1; 390,000 tested, 0.02% active; in the data active means activity change below about -50%; inconclusive means about -30% to -50%; inactive means above about -30%;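 note: stimulus is agonist 54-4 at its EC80 concentration; % is set by controls: 0 for no effect and ±100 for the full control effect; the text of the record puts the active cut at -80%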
#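 TRPML1-DL cells, Tet-induced overnight (~16 h, 37 °C) at 1,500 cells/well, were loaded with Ca8 no-wash dye plus quencher for 45-90 min at room temperature. Compounds were pinned during FDSS kinetic reading; agonist 54-4 at EC80 (4 uM final) then added.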
# Six1-Eya2 blk = qHTS Assay for Inhibitors of the Six1/Eya2 Interaction. AlphaScreen GST-Six1/His-Eya2 binding, biochemical; active compounds read low; control for the full effect not named in the record. 360,000 tested, 0.56% active. Homeobox protein SIX1 (Homo sapiens) + Protein phosphatase EYA2 (Homo sapiens), …. activity change, % (no concentration beside the values); in the data active = activity change below about -65%; inconclusive = about -30% to -65%; inactive = above about -30%; note: % is set by controls: 0 for no effect and ±100 for the full control effect
#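 Homogeneous AlphaScreen proximity assay pairing GST-Six1 with His-tagged Eya2 (added as 5X mix: 250 nM and 500 nM) in 50 mM Tris pH 8.0, 300 mM NaCl, 1 mM TCEP. Glutathione donor and nickel acceptor beads; 1 h, 37 °C, dark.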
# PINK1 expr mod = A Quantitative High throughput Screen to Identify Chemical Modulators of PINK1 Expression. PINK1 immunofluorescence, high-content cytometry, 24 h. Potency, µM (doses to about 76.6 µM), inactives show top-dose activation (PINK1 increase), actives largely listed as activators. 410,000 tested, 0.2% active; active = well fitted activation curve with a large enough effect; inconclusive = small, poorly fitted or top-dose-only effect; inactive = flat fitted curve, though single readings scatter; cell line not stated here;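 note: potency is the fitted concentration of half-maximal effect; % of control where 0% means no effect; nearly all actives have a fitted effect of over 65% in size; a mitochondrial uncoupler was the plate control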
#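 Stable cell line treated 24 h with compounds at 5 concentrations (CCCP controls), then fixed and immunostained for PINK1 plus nuclear and cell stains; PINK1 immunofluorescence quantified by laser-scanning microplate cytometry.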
# The depositor's hits bear a star; ? = inconclusive; . = not tested or not shown; [ ] = remark or other dose. This is a random part of the collection. About 1% of those tested had a hit in this group.
SMILES,TRPML1 agonist,D2 ag,CtBP-E1A inh,TRPML1 inh,Six1-Eya2 blk,PINK1 expr mod
COc1ccc(NC(=O)CSc2nc3scc(C)c3c(=O)[nH]2)cc1,0.1,0.2,1,-21,-1,6.3%
CCOC(=O)CC1CCCCN1C(=O)c1ccc2oc(CCc3ccccc3)nc2c1 (stereo not drawn),2.0,4.1,1,60,-5,2.3%
CCOC(=O)c1c(S(=O)(=O)N2CCc3ccccc32)c(C)n(C)c1C,-0.6,-3.3,-8,-6,-1,1.0%
Cc1[nH]n2c(=O)c(C#N)c(-c3ccccc3)nc2c1-c1ccccc1,3.7,-2.6,1,-2,-3,-4.6%
CCCCN(CCCC)S(=O)(=O)c1ccc(NC(=O)CN2CCOCC2)cc1,0.5,0.5,7,9,4,2.7%[38.3 µM]
O=C(Cn1cnc2c(nnn2Cc2ccccc2)c1=O)NCC1CCCO1 (stereo not drawn),0.4,-1.6,2,-2,2,0.9%
CCOc1cc2[nH]c(=O)n(Cc3ccc(C(=O)NCCN(CC)CC)cc3)c(=O)c2cc1OCC,-0.3,.,.,-15,.,-1.1%
O=C(Nc1ccc2c(c1)OCO2)c1ccc(N2C(=O)c3ccccc3C2=O)cc1,0.0,-1.7,6,-15,3,5.8%
CCCCn1c(=O)[nH]c(=O)c2c1nc(-c1cc(Br)ccc1OC)n2C,0.6,-5.2,2,8,4,0.4%
COc1ccc(C2=NO[C@@H]3[C@@H]4C[C@@H]([C@H]5C(=O)N(C)C(=O)[C@@H]45)[C@H]23)cc1,-0.1,1.0,-9,-21,5,-0.9%
O=C(Nc1ccc(Cc2ccncc2)cc1)c1ccco1,-0.9,-3.3,-4,-9,-1,-2.3%
CC(=O)N1CCN(CC(=O)NC(=O)Nc2ccc3c(c2)OCCO3)CC1,-0.6,2.8,-4,2,3,0.8%
CC(C)N(C(=O)[C@H]1CC(CC(=O)NCc2cccc(C(F)(F)F)c2)C(=O)N2CCc3c([nH]c4ccccc34)[C@]12C)C(C)C (stereo partly drawn),-0.2,0.1,-14,29,-19,9.4%
O=C(O)C1Nc2c(Cl)cc(Cl)cc2C2C=CCC12 (stereo not drawn),0.2,2.6,-8,-11,?,-1.5%
O=C(CSc1nnc(-c2cccnc2)n1-c1ccccc1)Nc1ccccc1,-0.5,0.1,9,4,-1,1.8%[38.3 µM]
CCC(C)[C@H](NC(=O)Nc1cccc(Cl)c1)C(=O)O (stereo partly drawn),-0.3,-7.5,6,11,7,1.7%
CC(C)OC(=O)c1ccc(NC(=O)C2C3CC4OC(=O)C2C4C3)cc1 (stereo not drawn),-0.4,-1.8,0,5,8,-1.5%
CN(C)S(=O)(=O)c1ccc(NC(=O)COC(=O)C2CC3CCCC(C2)C3=O)cc1 (stereo not drawn),0.5,-14,10,-15,-4,0.5%
Cc1ccc(-c2cc(N)n(-c3ccc(F)cc3)n2)cc1,-1.5,-4.3,-1,8,-3,2.3%
CC1CCN(C(=O)NC(=O)c2ccccc2)CC1,-0.4,1.6,0,-13,3,1.3%
COc1ccc(NC(=O)C(CC(C)C)NS(=O)(=O)c2ccc3c(c2)oc(=O)n3C)cc1Cl (stereo not drawn),1.0,.,.,-15,.,2.7%
O=C(Nc1ccc2c(c1)OCCO2)C(c1ccnc2ccccc12)N1CCC(Cc2ccccc2)CC1 (stereo not drawn),0.5,-4.0,-16,.,-13,-0.3%
CCCSc1nnc(CSc2ncccn2)n1C,-0.4,-0.6,4,17,1,0.8%
Cc1c(C(=O)O)oc2ccc(S(=O)(=O)NCc3ccc4c(c3)OCO4)cc12,0.0,-1.9,-19,-3,-3,1.5%
CCOC(=O)N1CCN(C(=O)CCCCCn2c(=S)[nH]c3ccsc3c2=O)CC1,0.3,-3.8,-7,0,-3,2.1%
# (next part)
SMILES,TRPML1 agonist,D2 ag,CtBP-E1A inh,TRPML1 inh,Six1-Eya2 blk,PINK1 expr mod
O=C(Nc1nnc([C@H]2C[C@H](O)[C@@H](CO)O2)s1)NC1CCCCC1,-0.2,-3.5,3,.,4,-0.3%
Cc1cc(C(F)(F)F)nn1CC(=O)NCc1cccs1,0.3,1.5,.,-28,0,-0.8%
Cc1ccc(C(c2nnnn2CC2CCCO2)N2CCN(C(=O)c3ccco3)CC2)cc1 (stereo not drawn),-0.3,-2.3,8,-1,-2,0.2%
COc1ccccc1C(=O)NC(CCSC)C(=O)NNC(=O)C(C)Oc1ccccc1F (stereo not drawn),-1.1,-2.5,.,7,-1,-0.2%
C=C(Br)Cn1c(CC(C)C)nc2ccccc21,4.1,0.1,-2,-4,8,0.7%
COC(=O)c1sccc1-c1ccc(C(=O)Nc2cccc(Cl)c2)o1,1.9,-3.8,5,28,3,12%
Cc1ccc(NC(=O)N2CCN(Cc3nc4ccc(C)cc4o3)CC2)cc1,0.2,.,.,0,.,-0.7%
CC(C)=CCNc1ncnc2c1c(C#N)cn2C1OC(CO)C(O)C1O (stereo not drawn),0.0,3.1,8,-12,5,-2.9%
C/C(=N\NC(=O)c1cc2c(s1)CCC(C)C2)c1ccc[nH]1 (stereo not drawn),-0.5,-1.8,.,11,2,9.9%
CN(C(=S)Nc1cccnc1)c1ccc(O)cc1,0.3,11,-4,-10,3,1.4%
CC(C)CNC(=O)COC(=O)c1ccc(Cl)c(S(=O)(=O)N2CCc3ccccc32)c1,2.5,2.6,4,11,9,-0.2%
N#CCSc1ncnc2ccccc12,0.2,-1.5,-3,-1,4,2.4%
Cc1ccc(-n2ncc(C(=O)NCCc3ccsc3)c2C2CCN(C(=O)OC(C)(C)C)CC2)c(C)c1,-0.3,.,.,-10,.,-0.2%
CCOc1cc(CNn2cnnc2SCC(=O)NC(C)(C)C)ccc1OCC(=O)NC(C)(C)C,-1.0,0.3,6,2,3,-0.5%
COc1cc2c(cc1OC)C(c1ccc(F)cc1)N(c1ccccc1)C(=O)C2 (stereo not drawn),-0.2,.,.,4,.,-1.2%
COc1cccc(NC(=O)CSc2nncn2-c2ccccn2)c1,-1.4,1.6,0,-4,5,-4.0%
O=C(NC(Cc1c[nH]c2ccccc12)C(=O)O)OCC1c2ccccc2-c2ccccc21 (stereo not drawn),-1.0,3.5,1,.,-9,-0.1%
Cc1cccc(C(=O)O/N=C(\N)Cc2cccc3ccccc23)c1,1.7,?,4,-9,9,-1.8%
Cc1cc(Cl)ccc1OCC(=O)NN1C(=O)C2C3C=CC(C3)C2C1=O (stereo not drawn),-0.4,-0.2,4,-11,6,2.6%
COc1ccc(NC(=O)C[C@H]2C(=O)N(Cc3ccccc3)C[C@@H]2C)cc1,-0.3,-7.8,3,-7,2,-0.4%
COc1ccc(OC)c(NC(=O)c2cccc(S(=O)(=O)N(Cc3ccccc3)c3ccccc3OC)c2)c1,0.7,0.8,-1,22,-4,1.0%
COc1ccc(NC(=O)Cn2nnc(-c3ccccc3)c2COc2ccc3ccccc3c2)cn1,0.3,5.8,-14,.,-7,2.1%
O=C(CSc1ccccc1)NCc1cccnc1,-0.9,-1.5,10,2,2,-5.9%
Cc1nn(C)cc1S(=O)(=O)NCc1ccccc1Cl,-0.5,1.7,1,-15,3,0.3%
Cc1nn(CC(=O)NCc2cc3ccccc3[nH]2)c(C)c1[N+](=O)[O-],-1.0,-3.4,-15,22,-6,-0.2%

# 3 entries already listed, sorted by the value under CtBP-E1A inh, high to low:
structure	D2 ag	CtBP-E1A inh	TRPML1 inh	Six1-Eya2 blk	PINK1 expr mod
CCC(C)[C@H](NC(=O)Nc1cccc(Cl)c1)C(=O)O (stereo partly drawn)	-7.5	6	11	7	1.7%
COC(=O)c1sccc1-c1ccc(C(=O)Nc2cccc(Cl)c2)o1	-3.8	5	28	3	12%
Cc1cccc(C(=O)O/N=C(\N)Cc2cccc3ccccc23)c1	?	4	-9	9	-1.8%

# (further entries)
SMILES,TRPML1 agonist,D2 ag,CtBP-E1A inh,TRPML1 inh,Six1-Eya2 blk,PINK1 expr mod
CN(C)S(=O)(=O)N1CCN(CC(=O)Nc2ccc(Br)cc2)CC1,0.0,-3.5,12,5,-5,-0.5%
COc1ccc(S(=O)(=O)Nc2cccc(Cl)c2)cc1OC,-0.5,-4.0,1,-1,-1,.
COc1ccc([N+](=O)[O-])cc1NC(=O)C(C)OC(=O)c1ccccn1 (stereo not drawn),0.4,-0.8,0,10,-2,1.3%
CN(Cc1ccccc1)S(=O)(=O)c1ccc(Cl)c(C(=O)NCCCN2CCCC2=O)c1,0.0,-2.9,4,-6,2,2.4%
Cc1nc(C)c2c(=O)cc(-c3ccccc3)[nH]c2n1,-0.5,-0.7,4,9,2,?
CC(=O)Nc1ccc(S(=O)(=O)NCc2ccc3c(c2)cc(C)n3C)cc1,3.1,-3.7,-21,1,-6,-0.6%
CCN(CC)CCCN(C)C(=O)Cn1nc(Cc2ccncc2)c2ccccc2c1=O,-0.2,1.4,5,0,10,1.4%
CC12CCC(=O)N1C(C(=O)N1CCN(S(=O)(=O)c3ccc(F)c(F)c3)CC1)CS2 (stereo not drawn),-0.2,2.4,6,-16,2,-2.8%
O=C(Nc1ccc(N2CCOCC2)cc1)C1CC(=O)N(c2ccc(F)cc2)C1 (stereo not drawn),-0.5,-5.0,-3,7,2,0.2%
COc1ccccc1C(=O)Nc1ccc(S(=O)(=O)Nc2nccs2)cc1,-0.1,-3.3,-13,16,-1,0.5%
COc1cc2c(cc1OC)C(COc1ccc([N+](=O)[O-])cc1)N(C(C)=O)CC2 (stereo not drawn),-0.4,-1.9,.,8,-1,0.8%

# A second format for some results above:
Structure	TRPML1 agonist	D2 ag	CtBP-E1A inh	TRPML1 inh	Six1-Eya2 blk	PINK1 expr mod
CCN(CC)CCCN(C)C(=O)Cn1nc(Cc2ccncc2)c2ccccc2c1=O	-0.2	1.4	5	0	10	1.4%
CN(C)S(=O)(=O)N1CCN(CC(=O)Nc2ccc(Br)cc2)CC1	0.0	-3.5	12	5	-5	-0.5%
CN(Cc1ccccc1)S(=O)(=O)c1ccc(Cl)c(C(=O)NCCCN2CCCC2=O)c1	0.0	-2.9	4	-6	2	2.4%
CC(=O)Nc1ccc(S(=O)(=O)NCc2ccc3c(c2)cc(C)n3C)cc1	3.1	-3.7	-21	1	-6	-0.6%
COc1ccccc1C(=O)Nc1ccc(S(=O)(=O)Nc2nccs2)cc1	-0.1	-3.3	-13	16	-1	0.5%
O=C(Nc1ccc(N2CCOCC2)cc1)C1CC(=O)N(c2ccc(F)cc2)C1 (stereo not drawn)	-0.5	-5.0	-3	7	2	0.2%
